Screening data: PubChem BioAssay, ICCB-Longwood Screening Facility, Harvard Medical School
GIV Gai3 FP: GIV-Galpha-i interaction inhibition. P08753. Galpha-i3/FITC-GIV peptide fluorescence polarization, 90 min; stronger effect = lower value; scaled: aluminum fluoride 0%, vehicle 100%. percent of control (FP), % (test concentration not listed). 0.42% of 210,000 active;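 active = replicate mean at 85% of control or lower, very high polarization wells dropped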;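 note: wells of about 15 µL received 100 nL stock; the first replicate is given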
Target sequence (P08753 whole entry, looked up): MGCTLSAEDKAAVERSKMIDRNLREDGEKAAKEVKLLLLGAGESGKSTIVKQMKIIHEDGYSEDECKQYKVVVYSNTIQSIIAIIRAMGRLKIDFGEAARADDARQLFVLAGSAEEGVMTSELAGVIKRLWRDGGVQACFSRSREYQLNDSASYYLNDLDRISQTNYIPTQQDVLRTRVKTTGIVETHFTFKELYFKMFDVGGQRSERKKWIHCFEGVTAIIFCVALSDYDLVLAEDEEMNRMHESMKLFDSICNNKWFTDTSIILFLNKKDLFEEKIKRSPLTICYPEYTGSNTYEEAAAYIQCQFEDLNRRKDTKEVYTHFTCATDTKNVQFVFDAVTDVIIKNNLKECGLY
* = called active by the depositor. The list is partial; count on the stated rates, not on these rows.

GIV Gai3 FP	canonical_smiles
106	O=C(Nc1nc2ccc(S(=O)(=O)N3CCOCC3)cc2s1)C1CCCO1 (stereo not drawn)
100	CCC(=O)Nc1cccc(-c2noc(C3CCCN(C(=O)c4ccc(C)cc4)C3)n2)c1 (stereo not drawn)
95	CC(C)Nc1ncnc2c1cnn2-c1ccc(F)cc1
102	CC1=C(C(=O)N2CCOCC2)C(c2c(F)cccc2Cl)C2=C(CC(C)(C)CC2=O)N1 (stereo not drawn)
94	CCc1onc(C)c1C1CCCN1C(=O)c1cc(C(F)(F)F)n(C)n1 (stereo not drawn)
101	O=C(CCC(=O)N1CCCN(c2nc3cccnc3s2)CC1)NCCN1CCCCC1
104	COc1ccc(N2C(=O)C3N=NN(c4cccc(OC)c4)C3C2=O)cc1 (stereo not drawn)
109	CCCn1cnc2c(-c3ccc(C)cc3)csc2c1=O
106	CC(C)CCNC(=O)CSc1nc(NCc2ccco2)c2ccccc2n1
107	O=S(=O)(c1ccc2c(c1)-c1oncc1CO2)N1CCN(C2CCCCC2)CC1
104	CS(=O)(=O)N(Cc1csc(-c2cccs2)n1)C1CCN(C(=O)C2CC2)CC1
106	O=C(c1cccc(-c2nc(-c3ccc(F)cc3)no2)c1)N1CCC(N2CCCCC2)CC1
105	Cn1c(=O)c2c(nc3n2CC(c2ccc(Br)cc2)=NN3c2ccccc2)n(C)c1=O
104	CCOC(=O)c1[nH]c(C)c(CCC(=O)N2CCCC(C(=O)NCCN3CCN(CC)CC3)C2)c1C (stereo not drawn)
114	O=S(=O)(NCc1cccs1)c1ccc(-c2cnc(C3CCCC3)o2)s1
100	Cc1sc(-c2cc(C(F)(F)F)[nH]n2)cc1S(=O)(=O)N1CCN(c2ccc(F)cc2)CC1
108	O=C(OC1=C(c2ccccc2)C(=O)c2ccccc21)c1ccc(Br)cc1
109	CN(C)c1ccc(N2C(=O)/C(=C/c3ccc(-c4ccc(Br)cc4)o3)C=C2c2ccccc2)cc1
104	COc1ccc(C2CC(c3ccc(Cl)cc3)=Nc3ccccc3N2C(C)=O)cc1 (stereo not drawn)
108	COC(=O)c1ccc2c(=O)n(CCc3ccc(OC)c(OC)c3)c(SCc3cc(=O)n4ccccc4n3)nc2c1
106	Cc1ccccc1C(=O)Nc1ccc2nc(SCC(=O)Nc3c(C)n(C)n(-c4ccccc4)c3=O)sc2c1
107	CCOc1ccc(-n2cc(-c3ccccc3)c3c(N4CCC5(CC4)OCCO5)ncnc32)cc1
106	CCCOC(=O)c1c(NC(=O)c2c(-c3ccccc3)noc2C)sc2c1CCC(C)C2 (stereo not drawn)
104	CC(=O)c1cccc(NC(=O)c2cc(-c3ccc(C)cc3)nc3ccccc23)c1
106	Cc1ccc(CN2CCCC2c2c(C)noc2C)cc1C (stereo not drawn)
104	Cn1nc(C(=O)N2CCCC(C(=O)N3CCCC3)C2)c2c1CCN(C(=O)COc1ccc(F)cc1)C2 (stereo not drawn)
108	CCOC(=O)c1c(S(=O)(=O)N2CCC(C(=O)Nc3ccc4c(c3)OCCO4)CC2)c(C)n(C)c1C
115	CCOc1ccc(C2=NN3C(C2)c2cccc(OC)c2OC3c2ccc(OC)cc2)cc1 (stereo not drawn)
107	O=C(Nc1ccc2c(c1)OCO2)c1ccc(=O)n(Cc2cccc(Cl)c2)c1
103	CCOC(=O)c1c(Cn2ccnc2C)n(C)c2cc(Br)c(OC(C)=O)cc12
102	COC(=O)C1=C(C(=O)OC)SC(=C2C(=S)C(C)(C)N(C(=O)c3ccc(Cl)cc3Cl)c3cc(C)ccc32)S1
105	CCCc1cc(C2CCCN2Cc2cn[nH]c2-c2ccccc2)no1 (stereo not drawn)
100	CCCS(=O)(=O)c1nc2ccc(NS(=O)(=O)c3ccc4c(c3)OCCO4)cc2s1
116	CC12c3ccccc3C(c3ccccc31)C1C(=O)N(c3cccc([N+](=O)[O-])c3)C(=O)C12 (stereo not drawn)
96	c1cc(N2CCCCC2)ncc1-c1noc(CN2CCC3(CC2)OCCO3)n1
102	CCSc1nc2ccc(NS(=O)(=O)Cc3cc(C)ccc3C)cc2s1
95	CCCCN(C)C(=O)c1ccc(-c2nc3ccccc3n(CCC)c2=O)cc1
105	Cc1ccc(-c2nn(-c3ccccc3)cc2/C=N/NC(=O)c2ccc(Br)cc2)cc1
104	CCc1ccc(N/C(SCc2cccc([N+](=O)[O-])c2)=C(/C#N)C(=O)NCc2ccco2)cc1
101	COc1ccc(C(=O)Cn2c(=O)n3nc(-c4ccccc4)nc3c3ccccc32)cc1OC
122	COC(=O)C1=CN(Cc2ccc(Cl)cc2)C=C(C(=O)OC)C1c1cc(OC)c(OC)cc1Br
114	Cc1ccc(/C(O)=C2\C(=O)C(=O)N(c3ccccn3)C2c2ccc(C(C)(C)C)cc2)cc1 (stereo not drawn)
108	Clc1ccc(-c2nnc3cccc(Cl)n23)cc1
110	CC1(C)CC(=O)C2=C(C1)c1c(ccc3ccccc13)NC2c1cc(Br)cc([N+](=O)[O-])c1O (stereo not drawn)
103	COc1ccccc1N1CCN(c2ncc(S(=O)(=O)c3ccccc3)c(N)n2)CC1

Sorted by SMILES length (rising): part of the list above
GIV Gai3 FP	canonical_smiles
102	CCSc1nc2ccc(NS(=O)(=O)Cc3cc(C)ccc3C)cc2s1
105	Cc1ccc(-c2nn(-c3ccccc3)cc2/C=N/NC(=O)c2ccc(Br)cc2)cc1
114	Cc1ccc(/C(O)=C2\C(=O)C(=O)N(c3ccccn3)C2c2ccc(C(C)(C)C)cc2)cc1 (stereo not drawn)

Following part:
GIV Gai3 FP	canonical_smiles
101	O=S(=O)(NC1CCCCCCC1)c1ccc2c(c1)-c1oncc1CO2
104	Cc1noc(C)c1C1CCCN1Cc1ccc(Cl)cc1 (stereo not drawn)
112	O=C(Cc1ccccc1)Nc1ccc2c(c1)OCCO2
96	Cc1sc(-c2cc(C(F)(F)F)on2)cc1S(=O)(=O)Nc1ccccc1F
105	Cn1c(CNC(=O)C2CCC2)nc2c1CN(S(=O)(=O)c1cccs1)CC2
108	O=C(c1nnc(-c2ccc(S(=O)(=O)N3CCOCC3)cc2)o1)N1CCOCC1
101	O=C(Nc1ccccc1Cl)N1CCN(Cc2cc(=O)n3nc(-c4ccc(F)cc4)sc3n2)CC1
100	CCOC(=O)c1c(NC(=O)CCCOc2ccc(Cl)cc2Cl)sc(C(=O)Nc2ccccc2F)c1C
103	Cc1nc(Oc2cccnc2)c2oc3ccccc3c2n1
119	COc1ccc(/C=C2\SC(=S)N(CCC(=O)N3CCCc4ccccc43)C2=O)cc1OC
102	O=[N+]([O-])c1ccc(O)c(C2Nc3ccccc3C(c3ccccc3)(c3ccccc3)O2)c1 (stereo not drawn)
107	Cc1ccc2c(c1)Oc1ccc(S(=O)(=O)N3CCC(C)CC3)cc1C(=O)N2
112	O=C(Cn1cnc2sc3c(c2c1=O)CCCC3)NCC(=O)N1CCN(c2cccc(Cl)c2)CC1
105	CC(=O)N1C(=O)N(C(C)=O)C2C1N(C(C)=O)C(=O)N2C(C)=O (stereo not drawn)
106	O=C(CSc1nn2c(SCC(=O)Nc3cccc([N+](=O)[O-])c3)nnc2s1)Nc1cccc([N+](=O)[O-])c1

A draw from above in order of SMILES length, low to high.
GIV Gai3 FP	canonical_smiles
112	O=C(Cc1ccccc1)Nc1ccc2c(c1)OCCO2
101	O=S(=O)(NC1CCCCCCC1)c1ccc2c(c1)-c1oncc1CO2
105	Cn1c(CNC(=O)C2CCC2)nc2c1CN(S(=O)(=O)c1cccs1)CC2
105	CC(=O)N1C(=O)N(C(C)=O)C2C1N(C(C)=O)C(=O)N2C(C)=O (stereo not drawn)
108	O=C(c1nnc(-c2ccc(S(=O)(=O)N3CCOCC3)cc2)o1)N1CCOCC1
119	COc1ccc(/C=C2\SC(=S)N(CCC(=O)N3CCCc4ccccc43)C2=O)cc1OC
101	O=C(Nc1ccccc1Cl)N1CCN(Cc2cc(=O)n3nc(-c4ccc(F)cc4)sc3n2)CC1
100	CCOC(=O)c1c(NC(=O)CCCOc2ccc(Cl)cc2Cl)sc(C(=O)Nc2ccccc2F)c1C
110	CC1(C)CC(=O)C2=C(C1)c1c(ccc3ccccc13)NC2c1cc(Br)cc([N+](=O)[O-])c1O (stereo not drawn)
106	O=C(CSc1nn2c(SCC(=O)Nc3cccc([N+](=O)[O-])c3)nnc2s1)Nc1cccc([N+](=O)[O-])c1

Remaining list, next part:
GIV Gai3 FP	canonical_smiles
104	CC(C)C(=O)N1CCC2(C1)C(=O)Nc1ccccc12 (stereo not drawn)
101	COc1ccc(C2Nc3ccccc3NC3=C2C(=O)CC(c2ccc(OC)c(OC)c2)C3)cc1O (stereo not drawn)
101	CN(C)C(=O)c1ccc2c(c1)CCN2C(=O)C1CCC1
107	CCOC(=O)C1CCCN(C(=O)c2ccc(Cn3c(=S)[nH]c4cc(C(=O)OC)ccc4c3=O)cc2)C1 (stereo not drawn)
102	CCn1ncc(CN2CCN(c3ncnc4c3CCC4)CC2)c1C
106	COc1ccc(/C=C2\N=C(c3cccc(Br)c3)OC2=O)c(OC)c1OC
100	COc1ccc(NC(=O)C2=C(C)NC(=O)NC2c2ccc(Br)cc2)cc1 (stereo not drawn)
110	Cn1c(CN2CCN(C(=O)c3ccccc3F)CC2)nc2cc(C(=O)N3CCCC3)ccc21
100	Cc1noc(-c2ccc(S(=O)(=O)N3CCCCC3C)s2)c1C (stereo not drawn)
111	Cc1ccccc1C1(c2ccccc2C)CC1C(=O)Nc1ccc(Br)cc1 (stereo not drawn)
102	Cc1ccc(NC(=O)CSC2=C(C#N)C(c3cccs3)CC(=O)N2)cc1Cl (stereo not drawn)
95	Cc1sc(-c2cc(C(F)(F)F)on2)cc1S(=O)(=O)N1CCN(C2CCCCC2)CC1
101	Cc1nc(N2CCOCC2)c2c(C)c(C(=O)NCc3ccccc3Cl)sc2n1
103	O=C(c1ccc2c(=O)n(CCC3=CCCCC3)c(=S)[nH]c2c1)N1CCCCC1
102	CC(C)(C)c1ccc(-c2nc(-c3ccc(NS(C)(=O)=O)cc3)no2)cc1
100	CCSc1sc(CC)cc1C1C(C(=O)Nc2cc(C)ccn2)=C(C)NC2=C1C(=O)CCC2 (stereo not drawn)
100	Cc1cccc(CNS(=O)(=O)c2c(C)sc(C)c2-c2n[nH]c(C)c2C)c1
113	O=[N+]([O-])c1ccc(S(=O)(=O)N2c3cccc4cccc(c34)S2(=O)=O)cc1
103	Cc1nc(-c2ccc(Cl)c(S(=O)(=O)N3CCCC(C(=O)N4CCc5ccccc54)C3)c2)no1 (stereo not drawn)
100	CC(C)Cc1csc(-c2csc(S(=O)(=O)NCc3cc(F)cc(F)c3)c2)n1
108	O=C(c1nnc(-c2cc(S(=O)(=O)NCC3CCCO3)c[nH]2)o1)N1CCCC1 (stereo not drawn)
104	COc1ccc(S(=O)(=O)N2CCc3c(c(COCc4ccccc4)nn3C)C2)cc1
104	CCOCCCNC(=O)N1c2ccccc2NC2=C(C(=O)CC(C)(C)C2)C1c1ccccc1 (stereo not drawn)
108	CCCCn1c(SCc2nc(-c3ccc(Cl)cc3)no2)nc2cc3c(cc2c1=O)OCO3
106	COc1cc(OC)c(NS(=O)(=O)c2cc(-c3nc(C)c(C)s3)sc2C)cc1Cl
104	CCOc1ccc(S(=O)(=O)Nc2cc(C(=O)OC)cc(C(=O)OC)c2)c2cccnc12
112	CCOc1cc(C(=O)Nc2c3c(nn2-c2ccc(F)cc2)CSC3)cc(OCC)c1OCC
97	Cc1cc(C2CCCN2S(=O)(=O)c2ccc(C)c(C)c2)on1 (stereo not drawn)
100	CCn1c(SCC(=O)Nc2ccc(S(N)(=O)=O)cc2)nnc1-c1cc2ccccc2o1
104	Cc1ccc(C(=O)NCc2nc(-c3ccc4c(c3)nnn4C)no2)cc1
110	COC(=O)c1c(C)oc2ccc(N(C(=O)c3ccncc3)S(=O)(=O)c3cccc([N+](=O)[O-])c3)cc12
109	Cn1cc(C(=O)NCC2CC2)c(S(=O)(=O)N2CCSCC2)n1
101	COc1ccc(-n2ccc(=O)c(-c3nc(-c4ccc(F)cc4)no3)n2)cc1
104	COc1cc(NC(=O)c2cc3nc(-c4ccccc4)cc(C(F)(F)F)n3n2)cc(OC)c1OC
113	CCc1onc(C)c1C1CCCN1Cc1cn[nH]c1-c1ccc(F)cc1 (stereo not drawn)
101	O=C1C2C3c4ccccc4C(CO)(c4ccccc43)C2C(=O)N1c1ccc(Cl)cc1Cl (stereo not drawn)
110	COc1cccc(-n2c(=S)sc3c2nc(SCc2cc(=O)n4cc(Cl)ccc4n2)n2c4ccccc4nc32)c1
107	CCOC(=O)CSC1=NS(=O)(=O)c2cc(F)ccc2N1
106	COC(=O)c1cc(C(=O)OC)cc(-n2c(/C=C/c3cccc([N+](=O)[O-])c3)nc3ccccc3c2=O)c1
102	COCCn1c(CNC(=O)CCc2c(C)noc2C)nc2cccnc21
110	COC(=O)C1=NNC2C(=O)N(c3cc(C)ccc3C)C(=O)C12 (stereo not drawn)
108	O=C(CSc1nc2ccccc2n1S(=O)(=O)c1cccs1)Nc1ccccc1F
98	Cc1nc(-c2ccc(C)c(S(=O)(=O)NCc3ccc4c(c3)OCO4)c2)no1
102	O=c1n(Cc2cccc(F)c2)nc2c(S(=O)(=O)N3CCN(c4ccc(F)cc4)CC3)cccn12
117	COc1ccc(/C=c2/sc3nc(=O)c(Cc4ccccc4)nn3c2=O)cc1OC
101	CCCCC1=NN(C(=O)c2ccc([N+](=O)[O-])cc2)C(O)(C(F)(F)F)C1 (stereo not drawn)
107	O=C(c1cc2nc(-c3ccc4c(c3)OCO4)cc(C(F)(F)F)n2n1)N1CCCCCC1
103	CCOC(=O)C1CCN(C(=O)CCCc2nc3cccnc3n2Cc2ccc(F)cc2)CC1
103	Cc1cc(SCC(=O)Nc2ccc(F)c(Cl)c2)nc2ccc(S(=O)(=O)N3CCCC3)cc12
112	COc1cc(C2CC(=O)Nc3c2ccc2ccccc32)ccc1OCCO (stereo not drawn)
106	O=C(NCc1nc2cccnc2n1Cc1ccccc1)c1ccccc1
106	Cc1oc(-c2ccccc2)nc1Cn1nnc(-c2nc(-c3ccccc3Cl)no2)c1C
